HNF4A DNA FP: change in binding of human HNF4 alpha to DNA; HNF4a-FITC DNA binding, fluorescence polarization, 1 h; activity change, % at 10 µM; 0.3% of 360,000 active; P41235; in the data active = activity change above about 30%, passing the limit was not always enough;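 also: controls were the assay level and a saturating level of protein; the project sought stronger binding though the title names inhibitors; some compounds called inactive have numbers as strong as hits; positive values seem to mean higher polarization but the record does not say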
Vif TR-FRET: inhibitors of Vif binding to APOBEC3G peptide, primary screen, biochemical, TR-FRET, GST-Vif 1-94, biotin-A3G peptide, dose response retest (AID 1117319); 0.57% of 260,000 active; inhibition, %, or IC50 in µM where a hit was titrated; TR-FRET GST-Vif / biotin-A3G peptide binding; higher % means a stronger effect; test concentration not given here; strong numbers were not always called active;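 active = above the screen mean plus three standard deviations and confirmed in dose response; inconclusive = results disagree or hit not tested in dose response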;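 also: Vif residues 1-94 fused to GST binding biotinylated APOBEC3G peptide 110-148; 0% = full assay without inhibitor and 100% = GST in place of GST-Vif; retest series ran down from 100 µM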
FGF22 binding: FGF22 (human) thermal shift binding | recombinant FGF22 thermal shift, SYPRO orange fluorescence; percent of sucrose octasulfate shift, DMSO zero | calls only at 9.99 µM | 1.5% of 340,000 active;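 active = melting point raised past a set limit in the mean and every replicate; inconclusive = no clear call; three in four hits are not shown here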
Target sequence (Q9HCT0 whole entry, looked up): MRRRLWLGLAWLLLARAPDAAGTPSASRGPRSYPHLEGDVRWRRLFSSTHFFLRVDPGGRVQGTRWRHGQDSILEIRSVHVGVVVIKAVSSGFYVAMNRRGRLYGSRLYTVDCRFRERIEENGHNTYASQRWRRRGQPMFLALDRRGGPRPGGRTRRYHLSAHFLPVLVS
UCH37 DUB inh: inhibitors of human deubiquitinating enzyme UCH37. Q9Y5K5. purified proteasome/UCH37, Ub-AMC cleavage fluorescence. inhibition, % (test concentration not listed). 0.33% of 330,000 active. AID 588478;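 active = mean of two replicates above 20%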;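 also: 0% = compound-free wells with enzyme and 100% = wells lacking proteasome; stock transfer was 100 nL into about 20 µL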
Target sequence (Q9Y5K5 whole entry, looked up): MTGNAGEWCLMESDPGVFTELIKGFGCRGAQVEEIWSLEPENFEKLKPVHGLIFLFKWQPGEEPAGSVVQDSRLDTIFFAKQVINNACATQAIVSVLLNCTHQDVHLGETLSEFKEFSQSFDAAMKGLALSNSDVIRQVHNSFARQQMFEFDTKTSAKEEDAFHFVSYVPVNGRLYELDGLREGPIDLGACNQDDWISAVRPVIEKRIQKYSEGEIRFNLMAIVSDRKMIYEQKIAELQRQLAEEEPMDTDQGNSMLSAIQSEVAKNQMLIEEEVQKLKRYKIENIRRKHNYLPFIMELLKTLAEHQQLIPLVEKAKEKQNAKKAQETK
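Assay system: Proteasome-bound UCH37. Buffer or medium: pH 7.4 Tris-HCl (50 mM) with ovalbumin, ATP-MgCl2, DTT. Incubation: 30 min preincubation with enzyme, 25 min cleavage at room temperature. Measured by: fluorescence, ex 355 nm, em 460 nm. Read-out basis: percent inhibition. Control set: wells without proteasome as full block, compound-free enzyme plus substrate as uninhibited.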
RanGTP-Impb inh: inhibitors of RanGTP-importin-beta interaction, primary screen, biochemical, FRET, CFP-Ran, YFP-importin-beta, homogeneous | cell-free CFP-Ran/YFP-importin-beta FRET ratio | inhibition, % (no concentration beside the values) | 1.1% of 300,000 active | AID 2216;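 active = most replicates above 15%; inconclusive = exactly half above 15%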;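 also: 0% = DMSO wells and 100% = Ran loaded with GDP instead of GTP; wells of about 40 µL received 100 nL stock; the first replicate is given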
AF4-AF9 inh: inhibitors of human MLL-AF4/AF9 interaction. P42568. AlphaScreen, biotin-AF4 peptide binding to FLAG-AF9. inhibition, % at 10 µM. 0.47% of 350,000 active. AID 651704;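 active = every replicate reaching a set inhibition limit, whatever the replicate mean, cut at about 25% in these data; inconclusive = mean inhibition reaches that limit but some replicates miss it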;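 also: 0% = plate neutral control median and 100% = total signal loss; the record names both 10 and 1 µM as test concentration; the first replicate is given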
E coli growth: inhibitors of Escherichia coli growth; OD600, 23 h; hits give low values; OD600 absorbance (test concentration not listed); 0.21% of 330,000 active; AID 1053175;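 active = OD600 absorbance below the run mean of sample wells minus 3.6 SD, in any replicate, cut at about 0.56 in these data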;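 also: stock transfer was 300 nL into about 60 µL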
* marks the source's active call; other numbers are inactive results; i = inactive; ? = inconclusive; . = not tested or not shown.

SMILES	HNF4A DNA FP	Vif TR-FRET	FGF22 binding	UCH37 DUB inh	RanGTP-Impb inh	AF4-AF9 inh	E coli growth
O=C(NCc1ccco1)C(c1ccccc1)N(C(=O)Cc1cccs1)c1ccccc1 (stereo unspecified)	-0.4	4%	.	2.8	-5.3	.	0.72
O=Cc1cn(-c2ccccc2)nc1-c1ccc2c(c1)OCCO2	9.2	4%	.	1.1	.	.	0.7
Fc1ccccc1COc1ccccc1CNCc1ccncc1	5.7	2%	i	1.0	5.0	5.0	0.69
O=C(CN1C(=O)NC2(CCCCCC2)C1=O)c1ccc2c(c1)OCCO2	3.2	-13%	.	-1.4	2.0	.	0.74
O=c1[nH]c(=O)n(Cc2ccc(Oc3ccccc3)cc2)cc1Br	-0.6	.	i	.	1.1	-0.6	.
CC(=O)c1ccc(N2CCN(C(=O)/C=C/c3ccc4ccccc4n3)CC2)cc1	0.6	-12%	i	7.1	-1.7	-1.7	0.7
O=C(NCc1cccc(OC(F)(F)F)c1)c1cccc2c1C(=O)c1ccc(-c3ccc(F)cc3OCc3ccccc3)cc1S2(=O)=O	7.1	.	i	0.9	.	-0.7	0.72
CCCCc1nc(Cl)c(C#N)c2c1CCC2	7.3	0%	i	2.7	-1.2	-5.1	0.7
Cc1occc1-c1nnc(SCC(=O)N2CCOCC2)n1CCc1ccccc1	-0.7	0%	.	-0.6	1.4	.	0.69
CCOc1cc(N2CCOCC2)c(OCC)cc1NC(=O)CCS(=O)(=O)c1ccc(Cl)cc1	0.6	20%	.	-1.1	2.4	.	0.68
Cc1ccc(-n2c(SCc3ccc([N+](=O)[O-])cc3)nc3ccccc3c2=O)cc1	2.4	6%	.	1.7	1.4	.	0.75
CCCc1cc(=O)[nH]c(SCC(=O)c2cc(C)n(CC(F)(F)F)c2C)n1	-3.3	2%	i	2.3	-0.6	-3.0	0.71
Cc1ccc2cccc(OCCOCCOc3ccccc3Br)c2n1	2.6	0%	i	0.2	-3.2	2.2	0.66
Cn1c(Cn2cnc3ccccc32)nnc1SCC(=O)CC(=O)Nc1ccccc1	-1.0	?	.	-2.1	?	.	0.74
O=C(Nc1cccc(S(=O)(=O)N2CCCCC2)c1)c1cccs1	1.8	.	i	0.2	5.4	-3.1	0.68
COc1cccc(NC(=O)Nc2nnc(Cc3ccccc3F)s2)c1	1.0	-3%	i	0.8	-2.4	-0.3	0.68
O=C(NN1C(=O)C2C3C=CC(C4CC34)C2C1=O)c1ccc(Cl)cc1 (stereo unspecified)	-3.3	-2%	.	1.8	0.4	.	0.73
CC1=C(C)CC(C(=O)NCc2ccccn2)C(C(=O)O)C1 (stereo unspecified)	6.7	-8%	i	9.6	-1.0	-2.7	0.7
CC1(C)CC(=O)c2sc(NC(=O)c3cccs3)nc2C1	0.2	-5%	.	10	?	.	0.7
Oc1ccc(-c2[nH]ncc2-c2cnn(-c3ccccc3)c2)c(O)c1	1.7	7%	i	0.9	5.3	2.2	0.68
CCOC(=O)C(NC(=O)NCc1ccc(OC)cc1)(OCC)C(F)(F)F (stereo unspecified)	-0.1	.	i	2.8	-4.6	-4.6	0.68
CCCn1nc(C(=O)Nc2cc(S(=O)(=O)Nc3ccc(OC)cc3)ccc2O)c2ccccc2c1=O	-1.2	-9%	i	1.8	.	1.9	0.66
COC(=O)Cn1cc(/C=C(/C#N)C(=O)N2CCOCC2)c2ccccc21	0.6	-3%	i	-2.1	6.5	-0.1	0.7
CCc1nc2c(OCC3CCCCC3)cccn2c1N(C)C(=O)c1ccc(C)cc1	-0.4	.	i	.	.	7.7	.
O=C(CCCN1C(=O)c2ccccc2C1=O)Nc1nnc(C2CC2)s1	3.6	0%	i	5.9	-1.7	-1.1	0.69
O=C(NNc1ncccc1-n1cccc1)c1ccc(Cl)cc1	-0.6	.	i	4.3	0.0	.	0.69
COC(=O)CSc1nc(N)c2c3c(sc2n1)C(c1ccccc1)SC(c1ccccc1)C3 (stereo unspecified)	25	.	.	0.1	5.6	.	0.7
COc1ccc(C(=O)OCC(=O)Nc2ccc(N3CCOCC3)cc2)cc1	-0.6	26%	i	1.7	.	-1.8	0.69
CCCNc1nc(C)cc(-c2cc(-c3ccc(Cl)cc3)on2)n1	2.2	-2%	i	-0.1	?	1.5	0.68
CCOC(=O)C1Oc2ccccc2C(c2ccc(C)cc2)=C1C(=O)OC (stereo unspecified)	-0.4	-4%	i	5.4	.	6.1	0.71
O=C(NCCSc1ccccn1)c1ccc(Cl)cc1Cl	6.3	-2%	i	0.5	4.3	-0.8	0.73
COc1ccc(-n2c(O)c(C=NCC(c3ccco3)N3CCCC3)c3ccccc3c2=O)cc1OC (stereo unspecified)	7.7	-4%	.	-1.3	-2.9	.	0.69
CC(C)c1ccc(NC(=O)COc2ccc(C3SCCS3)cc2)cc1	-7.1	0%	i	5.3	4.3	-3.2	0.69
COc1cc2c(cc1OC)C1=C(C#N)CCC(=NC(=O)c3ccco3)N1CC2	5.6	4%	i	.	-0.5	-1.5	.
Cc1cccc(N/N=C/c2ccccc2O)c1	-5.6	0%	i	.	-2.3	-55	.
O=C1/C(=C\c2cccnc2)SC(=S)N1c1ccc(F)cc1	1.6	1%	i	3.2	-3.0	0.1	0.7
NC[C@H](Cc1ccccc1)NCCCCC1CCCCC1	3.3	.	i	-0.1	.	8.4	.
Cc1cc(NC(=O)Nc2ccc(Cl)cc2)n(C(C)(C)C)n1	1.0	-4%	i	1.3	-2.0	-10	0.64

This is a subset; rates above refer to the full screens.
